Screens as filed in PubChem BioAssay.
Rce1 inhib: yeast Rce1p protease inhibitors, primary screen, biochemical, fluorescence, cell-free homogeneous. CAAX prenyl protease 2 (Saccharomyces cerevisiae (strain ATCC 204508 / S288c)), Q03530. calls only. AID 2563, 2010. yeast membranes, quenched prenylated peptide cleavage fluorescence. 290,000 compounds, 0.27% hits;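 active = fall in fluorescence gain of 50% or more versus controls, with final raw signal at or below 3038400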;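 also: plate controls were neutral control wells for no effect and wells lacking membranes for full effect; tested at 10 µM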
Target sequence (Q03530 whole entry, looked up): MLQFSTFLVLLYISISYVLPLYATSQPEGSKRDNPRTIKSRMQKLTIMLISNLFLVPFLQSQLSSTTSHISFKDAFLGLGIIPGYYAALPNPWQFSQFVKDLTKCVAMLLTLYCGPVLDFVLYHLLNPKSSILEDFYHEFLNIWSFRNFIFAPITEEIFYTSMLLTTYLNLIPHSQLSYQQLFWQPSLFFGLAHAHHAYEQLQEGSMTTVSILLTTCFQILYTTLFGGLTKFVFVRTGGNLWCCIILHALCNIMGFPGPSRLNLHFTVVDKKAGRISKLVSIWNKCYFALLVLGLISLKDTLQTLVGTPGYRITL
PABP FP inh: PABP poly(A) RNA binding inhibitors, primary screen, biochemical, fluorescence polarization, uHTS; inhibition, % at 35 µM; 290,000 compounds, 1% hits;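 active = 50% or more with normal probe brightness, or confirmed in later tests; about a fifth of its hits are not listed in these tables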;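 also: calls also rest on retests at 20 µM and on dose response follow-up; controls were probe without protein and protein plus probe with vehicle; some compounds called inactive have numbers as strong as hits; many hits fall short of the cut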
Env fusion inh: inhibitors of HIV-1 Env-driven cell-cell fusion, primary screen, HeLa-JRFL effector, CEM21 target cells, luciferase. 360,000 compounds, 1.1% hits. AID 651610, 2012. inhibition, % at 12.3 µM;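 active = mean replicate inhibition score of at least 50 and every replicate individually at or above 50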;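 also: 0% = plate neutral controls and 100% = maraviroc near 300 nM; one replicate is shown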
MT1-MMP act inh: blockers of MT1-MMP proenzyme processing, primary screen, HT1080 RFP-PRO-GFP cells, GFP/RFP fluorescence. Matrix metalloproteinase-14 (Homo sapiens), P50281. GFP/RFP ratio fluorescence, overnight; percent of plate control window, DMSO zero. GFP/RFP ratio change, % at 20 µM. 360,000 compounds, 0.061% hits;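 active = GFP/RFP ratio change of at least 30% with cell ATP level not reduced by more than half and red fluorescence within 50% of control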; also: strong numbers were not always called active
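Assay system: HT1080 RFP-PRO-GFP cells | Dosing: 20 µM single dose, 1% DMSO | Incubation: Cells overnight before dosing, compound overnight, 37 °C, 5% CO2 | Evaluation: GFP/RFP fluorescence ratio | Control set: DMSO-only wells and HT1080 RFP-L50D-GFP cell wells as references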
eIF4H FP inh: human eIF4H binding inhibitors, primary screen, translation initiation inhibitor project, biochemical, uHTS, fluorescence polarization. Eukaryotic translation initiation factor 4H (Homo sapiens), Q15056. eIF4H fluorescence polarization binding assay. inhibition, % at 35 µM. 290,000 compounds, 0.94% hits. AID 2012, 2009;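 active = 50% or more with normal probe brightness, or confirmed in later tests; about a fifth of its hits are not listed in these tables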;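 also: calls also rest on retests at 20 µM and on dose response follow-up; 0% = protein and probe with vehicle and 100% = probe without protein; strong numbers were not always called active; many hits fall short of the cut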
Yeast UUG start: modulators of yeast start codon fidelity, primary screen, whole organism, S. cerevisiae, single point, plate reader | S. cerevisiae UUG-firefly luciferase reporter, luminescence/redox ratio | activity score, % at 18.7 µM | 350,000 compounds, 0.13% hits | AID 602363, 2012;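 active = replicate mean at a twofold rise or more, about +100% in these data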;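 also: firefly luciferase made from a UUG start codon reports start codon fidelity; reporter light over untreated wells divided by growth signal over untreated wells; some hits fall short of that in this replicate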
CSC inhib: cancer stem cell viability inhibitors, primary screen, luminescence; inhibition, % at 7.5 µM; AID 2717, 2010; 300,000 compounds, 1.1% hits; cancer stem cell-like cells viability;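 active = mean at 75% or more and at least half the replicates too; tested in HMLE shEcad cells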;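 also: 0% = median of negative and 100% = median of positive control wells; the first replicate is given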
eIF4H FP inh retest: second read-out of eIF4H FP inh, no call of its own (marks repeat the call); inhibition, %; compound at 20 µM; confirmation average;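 mean of two retest wells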
PABP FP inh retest: recorded beside PABP FP inh, whose call it bears; inhibition, %; compound at 20 µM; confirmation repeats;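 mean of two retest wells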
MT1-MMP act inh RFP: recorded beside MT1-MMP act inh, whose call it bears; RFP signal change, %; measured here: RFP expression control read;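 0 = vehicle wells; hits needed this value within 50% of zero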
* = called active by the depositor; i = inactive; / = no result given; + = active, no number.

SMILES | Rce1 inhib | PABP FP inh | Env fusion inh | MT1-MMP act inh | MT1-MMP act inh RFP | eIF4H FP inh | Yeast UUG start | CSC inhib | others
O=C(Nc1ccc(N2CCN(C(=O)c3ccc(Cl)cc3)CC2)cc1)c1cc2ccccc2o1 | i | -8.5 | -5.9 | 14.7 | -4.1 | -10.0 | 5.0 | -3.7
COc1ccccc1N1CC(C)(C)C(=O)N(C(=O)c2ccc(Cl)cc2)C1=S | i | -2.2 | 9.0 | 4.4 | 1.0 | -0.3 | / | 5.8
Cc1cnc(C(=O)OCC(=O)Nc2cc(-c3ccccc3)nn2-c2ccccc2)cn1 | i | / | -48.7 | 1.5 | -0.6 | / | -1.2 | 0.6
CSc1cccc(NC(=S)N(Cc2ccc(C)cc2)Cc2cccnc2)c1 | i | -19.7 | 8.1 | -3.5 | -1.2 | 0.0 | / | 23.6
O=C(C/C=N/OCc1ccc(Cl)cc1Cl)c1ccccc1 | i | -7.4 | 10.6 | -1.7 | 2.2 | -11.3 | -19.2 | -4.4
CCOc1ccc(C(=O)OC(C)CN2CCN(C)CC2)cc1 (configuration not stated) | i | 8.1 | 8.5 | 1.3 | 0.6 | -11.8 | -8.7 | /
O=C(CCc1nc2cccnc2n1Cc1ccccc1)NCCc1ccc(Cl)cc1 | i | -12.6 | -44.3 | 0.7 | -9.8 | -9.3 | 1.2 | -3.4
CCN1C(=NCc2cc(OC)c(OC)c(OC)c2)N[C@@H](c2ccccc2)C(C(=O)OC)=C1C | / | / | / | 0.3 | 1.2 | / | -7.7 | -7.9
O=C(Nc1cccc(C(F)(F)F)c1)C1CC(=O)N(Cc2ccco2)C1 (configuration not stated) | / | / | 15.8 | 0.3 | 5.5 | / | -7.6 | /
O=C(NCc1ccco1)C1CC(c2ccc(C(F)(F)F)cc2)=NO1 (configuration not stated) | i | / | -89.9 | 4.3 | -1.3 | / | -23.6 | -0.4
Cc1ccc(-c2csc(NC(=O)C3CCN(S(=O)(=O)c4cccs4)CC3)n2)cc1 | i | 21.5 | 63.4* | -10.2 | -23.1 | -2.2 | / | 33.3
CCOC(=O)C1CCCN(Cc2ccc(-c3ccccc3)cc2)C1 (configuration not stated) | i | -7.4 | 5.7 | 2.7 | -1.3 | 11.6 | -9.5 | 9.5
Cc1onc(-c2ccccc2)c1C(=O)Nc1ccnn1C1CCCCC1 | i | 0.9 | 8.5 | -6.9 | -2.1 | -1.0 | -2.1 | -8.4
CCc1nc(N2CCOCC2)c(C#N)c2c1CCCC2 | i | -3.5 | / | -9.0 | -1.4 | -10.2 | -8.4 | /
CC(C)(C)c1ccc(Cn2nnc3c(=O)[nH]c(C4CCN(C(=O)c5ccco5)CC4)nc32)cc1 | i | -8.5 | 33.0 | -2.1 | -9.4 | -16.8 | -20.4 | /
Cc1onc(-c2ccccc2)c1C(=O)NCc1ccc(Cl)cc1 | i | 6.4 | -6.1 | 3.6 | -0.6 | -11.1 | -17.4 | -1.9
CC(=O)c1c(C)nc(-c2ccccc2)nc1NC(=O)Cc1ccccc1 | i | -1.2 | 4.9 | 2.1 | -2.6 | -7.0 | / | 4.2
CN=Cc1cc(-c2ccccc2)sc1O | i | -2.0 | -18.4 | -4.3 | -4.3 | -4.5 | 0.2 | /
CN1CCC(OC(=O)COc2ccc(F)cc2)CC1 | i | 3.7 | 4.3 | 3.0 | 4.0 | 4.1 | -11.8 | -16.8
Cc1ccc(-c2nc(Nc3ccc(O)cc3)c3ccccc3n2)cc1 | i | 5.1 | 14.0 | -6.6 | -5.4 | 10.3 | -21.3 | 73.1
O=C1CCN(Cc2ccc(Cl)cc2)N1 | i | 3.8 | -4.8 | 1.7 | 0.9 | 1.4 | -14.3 | -17.2
O=C(NCc1cccnc1)c1csc2c1CCCC2 | i | 1.2 | -2.0 | -2.8 | 2.3 | 2.0 | / | 7.8
O=C(CCc1nnc2ccc(N3CCCC3)nn12)Nc1ccc(F)cc1F | i | 4.7 | -1.3 | -1.0 | -0.3 | -4.5 | -20.7 | -0.9
O=C1NC(=S)S/C1=C\c1cc(Cl)ccc1Cl | / | / | -8.0 | 9.2 | -24.5 | / | -36.5 | /
O=C(/C=C/c1cccs1)Nc1ccc([N+](=O)[O-])cc1 | i | 6.9 | -14.2 | 0.1 | -3.8 | -16.9 | / | 17.8
COc1ccc(/C=N/NC(=O)c2ccc3nc[nH]c3c2)cc1 | i | 0.3 | 7.9 | -1.1 | -1.4 | -5.5 | -12.7 | -0.4
COc1ccc(-c2ccc(C(=O)Nc3ccccc3)c3occc23)c(C)c1 | / | / | -120.9 | -6.5 | -15.5 | / | -34.6 | /
C/C(=N\Nc1ncc(Cl)cc1Cl)c1ccc(OC(F)F)cc1 | i | 0.7 | -55.1 | -38.9 | 5.0 | -6.4 | -10.5 | 1.7
CCOc1ccc(/C=N/Nc2nc(=O)[nH]nc2C)cc1OC | i | 12.5 | 6.3 | 5.8 | 6.9 | -7.4 | -13.9 | -20.2
Cc1nnc2ccc(Oc3ccc(-c4ccccc4)cc3)nn12 | i | -4.5 | -7.9 | 1.8 | -14.3 | -7.4 | -21.6 | -3.3
N#Cc1cccc(NC(=O)COc2ccc(-n3ccnc3)cc2)c1 | i | -0.1 | 33.9 | 0.9 | -16.2 | -6.6 | -14.2 | 7.2
CC(=O)N1CCN(C(=O)CNc2cc(C(F)(F)F)ccc2OCC(F)(F)F)CC1 | i | -1.5 | / | -2.0 | 12.3 | 6.7 | -9.1 | -2.1
COc1cccc(C(=O)Nc2c[nH]c(=O)[nH]c2=O)c1 | i | -0.7 | 13.6 | 2.7 | 5.3 | -10.5 | -13.2 | 2.8
CC(/C=N/NC(=O)Cn1cnc2ccccc21)=C\c1ccccc1 | i | 9.9 | 43.2 | 0.0 | -14.5 | -12.3 | / | -1.6
CN(Cc1ccccc1)C(=O)COc1ccc(Br)cc1Cl | i | -7.0 | -3.6 | -0.4 | -1.8 | -3.3 | / | -5.8
CCOc1cc(C(=O)OCC(=O)c2c(C)[nH]c3ccccc23)ccc1OCC(=O)N1CCOCC1 | i | -5.4 | -80.2 | -8.3 | 0.5 | -1.9 | 7.0 | -11.2
COc1ccccc1NS(=O)(=O)c1ccc(C(=O)N2CCN(c3ccccc3O)CC2)cc1 | i | / | -15.6 | 6.2 | -9.5 | / | / | -7.5
Cc1ccc(C(=O)OCC(=O)NCc2cccs2)cc1C | i | -4.0 | -5.6 | -3.9 | 0.2 | -4.1 | / | -9.2
Cc1ccc(/C=C/C(=O)Nc2ccc(S(=O)(=O)Nc3onc(C)c3C)cc2)cc1 | i | 3.5 | 1.4 | -0.3 | 0.7 | -1.7 | -9.6 | -3.9
COc1ccccc1CNCc1ccc(C)cc1 | i | -1.4 | 6.0 | 3.1 | 7.8 | -1.4 | -11.6 | -13.3
Nc1nc(Sc2ccc(C(F)(F)F)cn2)n[nH]1 | i | 2.5 | -5.5 | -0.9 | -0.5 | 9.8 | -17.3 | -9.2
Cc1cc(NC(=O)C(=O)NCc2cccc(Cl)c2)no1 | i | 1.9 | -4.3 | 0.5 | 2.8 | -7.1 | / | -6.0
O=C(O)C1CCCCC1C(=O)NCCc1ccccc1 (configuration not stated) | i | -10.6 | -15.9 | 4.8 | 5.9 | -10.4 | -18.8 | 7.9
CCCCn1c(=O)[nH]c(=O)c2c1nc(-c1ccccc1F)n2Cc1ccccc1 | i | 0.3 | 4.8 | -2.1 | -2.0 | -4.4 | / | 1.4
Cc1ccc(NC(=O)COC(=O)CCn2c(C)csc2=O)cc1S(=O)(=O)N1CCOCC1 | i | / | -94.6 | 2.6 | 3.0 | / | -10.9 | -12.3

Grouped by structure: the entries above containing an aryl thioether with sulfur outside any ring.
SMILES | Rce1 inhib | PABP FP inh | Env fusion inh | MT1-MMP act inh | MT1-MMP act inh RFP | eIF4H FP inh | Yeast UUG start | CSC inhib | others
CSc1cccc(NC(=S)N(Cc2ccc(C)cc2)Cc2cccnc2)c1 | i | -19.7 | 8.1 | -3.5 | -1.2 | 0.0 | / | 23.6
Nc1nc(Sc2ccc(C(F)(F)F)cn2)n[nH]1 | i | 2.5 | -5.5 | -0.9 | -0.5 | 9.8 | -17.3 | -9.2

Next section:
SMILES | Rce1 inhib | PABP FP inh | Env fusion inh | MT1-MMP act inh | MT1-MMP act inh RFP | eIF4H FP inh | Yeast UUG start | CSC inhib | others
COC(=O)C1=C(C(=O)OC)C(c2ccccc2O)c2sc(=O)[nH]c2S1 (configuration not stated) | i | 1.9 | / | -19.6 | 1.9 | -3.6 | / | /
Cc1nc(N2CCCCC2)c2c(C)c(C(=O)Nc3ccccc3C(F)(F)F)sc2n1 | + | -13.1 | -44.7 | 3.2 | -2.8 | 2.6 | / | 77.1*
O=S(=O)(Cc1ccccc1)Nc1ccc(S(=O)(=O)N2CCCC2)cc1 | i | -6.1 | 4.0 | 0.6 | 1.9 | -4.8 | 4.5 | -4.3
Cc1cc(SCC(=O)NC2(C#N)CCCCC2)nc2c(C)cccc12 | / | / | 0.6 | -6.9 | -0.1 | / | -0.5 | 20.4
Cc1ccc(OCC(=O)N2CCCC(CO)(CCOc3ccccc3)C2)cc1 (configuration not stated) | i | 34.6 | 17.9 | 2.6 | -6.1 | -4.7 | 7.8 | 6.8
COc1ccccc1CNC(=O)C1CC(c2ccccc2C(F)(F)F)=NO1 (configuration not stated) | i | -4.2 | -13.1 | 0.0 | 1.4 | 2.4 | -12.6 | 4.0
CC(=O)NC(CCS(C)(=O)=O)C(=O)Nc1ccc(Oc2ccccc2)cc1 (configuration not stated) | i | 2.7 | -15.2 | 1.1 | 5.4 | 0.1 | -12.2 | -4.2
CCCCCOc1ccccc1C(=O)NCC(=O)O | i | -11.2 | -0.1 | 2.0 | -4.2 | -0.1 | -15.0 | 5.3
O=C(Nc1cccc([N+](=O)[O-])c1)c1ccncc1 | i | 3.1 | -2.1 | 2.9 | 2.7 | -5.6 | -12.3 | 12.5
Cc1ccc(Cl)c(OCCCCN2CCC(C)CC2)c1 | / | / | 5.8 | 1.0 | 0.6 | / | -8.7 | /
Cc1cc(Br)c(NC(=O)COC(=O)c2ccc[n+]([O-])c2)c(Br)c1 | / | / | / | -5.3 | -0.5 | / | -14.6 | -8.1
O=C(Nc1cscc1S(=O)(=O)c1ccc(Cl)cc1)c1ccccc1Cl | i | -0.5 | 7.0 | 0.8 | -7.7 | -13.0 | -9.3 | 2.9
COc1ccc(C(=O)N(CCc2ccccc2)Cc2cccs2)c(OC)c1 | i | -5.1 | 7.2 | -0.7 | -3.0 | 98.5 | / | -2.3 | eIF4H FP inh retest=-1.1;PABP FP inh retest=-0.3
COc1ccc(OCCN(C)Cc2ccccc2)cc1 | i | -2.0 | -60.6 | 1.8 | 2.4 | -5.2 | -12.0 | -10.0
C=CCc1ccc(OCCOCCOc2cccc3ccc(C)nc23)c(OC)c1 | i | 13.7 | 33.5 | -6.6 | -1.4 | -9.4 | -12.9 | 7.9
COCCN(Cc1nc2ccccc2c(=O)[nH]1)C(=O)COc1c(C)cc(Cl)cc1C | / | / | / | -4.5 | -7.2 | / | -1.4 | 3.6
O=C(COC(=O)c1nc(Cl)ccc1Cl)Nc1ccc2c(c1)OCO2 | / | 11.8 | -14.4 | 0.7 | 5.1 | 3.6 | / | -11.9
O=C(O)CCN1C(=O)c2ccncc2C1=O | i | -3.6 | -8.2 | 5.4 | 6.6 | -8.0 | -22.5 | -12.0
